Menin-MLL FL inh = displaces fluorescein MLL peptide from human menin; Fluorescence polarization, fluorescein-MLL peptide displacement from menin; FP activity change, % at 61.4 µM; 290,000 tested, under 10 active; inconclusive = falling polarisation curve, or a change in total fluorescence; inactive = total fluorescence flat and polarisation flat or rising; no compound was filed as active; the % refers to the polarisation; negative = inhibition;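 note: % of control where 0% means no effect; inhibitors lower the polarisation; unlabelled MLL peptide was the positive control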
Sfp inh = blocks B. subtilis Sfp PPTase activity | Q9F4F7 | Biochemical Sfp PPTase activity, qHTS | Potency, µM, for inactives: max response, negative = inhibition, most hits filed as inhibitors | 3.5% of 310,000 active | AID 1490; active = well fitted inhibition curve with a large enough effect; inconclusive = small, poorly fitted or top-dose-only effect, or another doubt; inactive = no such curve, though single readings can be large or run the other way;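 note: the enzyme is Sfp with the accession as filed and its product quenches rhodamine fluorescence; potency is the fitted concentration of half-maximal effect; 0% = enzyme reaction without inhibitor and -100% = no enzyme wells; top concentration of the series not given in the record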
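With Hepes-Na pH 7.6 buffer containing 10 mM MgCl2, Sfp (15 nM) modified BHQ-2-YbbR (12.5 uM) using rhodamine-CoA (5 uM). Two reads 30 minutes apart at 525/598 nm yielded each well's rate.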
gsp antagonist = gsp mutant antagonism. gsp-mutant cells, cAMP HTRF, 30 min; control for the full effect not named in the record. Potency, µM (highest dose often 76.9 µM), for the others: top-dose activity change, negative = inhibition, usual class: inhibitors. 0.4% of 340,000 active; active = falling curve of any shape with a large fitted effect; inconclusive = falling curve, mostly with a smaller effect; inactive = flat or rising curve; cell line not stated here;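 note: intracellular cAMP measured with PDE inhibitor Ro 20-1724 present during compound exposure; potency is the fitted concentration of half-maximal effect; % is set by controls: 0 for no effect and ±100 for the full control effect; nearly all actives have a fitted effect of over 65% in size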
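HTRF cAMP read-out (cAMP-d2 plus anti-cAMP antibody-K in lysis buffer, 30 min RT). Before lysis, cells are exposed to compounds with […] for 30 min at 37C in DPBS containing Ca/Mg, BSA and Tween 20.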
ClpP mod = qHTS Assay for Activators of ClpP. 1.9% of 340,000 active. purified B. subtilis ClpP, FRET peptide cleavage, 20 min. Potency, µM (titrated, usually from 57.5 µM), inactives show at the top dose activity change, negative = active; active = well fitted falling curve with a large enough effect; inconclusive = small, poorly fitted or top-dose-only effect; inactive = no such curve, though single readings can be large or run the other way; note: potency is the fitted concentration of half-maximal effect; the source files actives as falling curves though it sought activators and does not explain the sign; nearly all actives have a fitted effect of over 65% in size; many hits overshoot -100%
Target sequence (P80244 whole entry, looked up): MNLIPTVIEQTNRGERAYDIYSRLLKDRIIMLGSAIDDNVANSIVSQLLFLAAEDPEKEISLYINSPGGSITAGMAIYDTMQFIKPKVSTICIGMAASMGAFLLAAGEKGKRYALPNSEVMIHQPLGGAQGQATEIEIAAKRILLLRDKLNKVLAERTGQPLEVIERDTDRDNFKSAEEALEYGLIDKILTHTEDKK
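Buffer: 100 mM Tris/HCl pH8, 100 mM KCl, 0.05% low protease BSA, 2.5% glycerol, 0.01% Tween-20. ClpP 10 microg/mL final; 20 min RT; delta FRET normalized to ADEP and DMSO controls.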
gsp ag = gsp mutant agonism; gsp mutant cells, cAMP HTRF, 30 min; control for the full effect not named in the record; Potency, µM (series often up to 76.9 µM), inactives show at the top dose activation (cAMP increase), actives largely listed as activators; 0.13% of 340,000 active; AID 624287; active = well fitted activation curve with a large enough effect; inconclusive = small, poorly fitted or top-dose-only effect, or another doubt; inactive = no such curve, though single readings can be large or run the other way; cell line not stated here;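 note: phosphodiesterase inhibitor Ro 20-1724 added with compounds to block cAMP breakdown; potency is the fitted concentration of half-maximal effect; nearly all actives have a fitted effect of over 60% in size; about a fifth of the inactives were tested at one dose only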
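Cells in DMEM/10% FBS with G418 were pretreated with compounds in DMSO plus […] (300 uM stock) for 30 min at 37C. cAMP was measured by HTRF (cAMP-d2 plus anti-cAMP antibody-K) after 30 min at room temperature.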
TRPV1 potentiator = human TRPV1 potentiation | Q8NER1 | 0.02% of 320,000 active | TRPV1-expressing cells, Fluo-8 calcium influx, capsaicin EC20 potentiation; host cell line not named in the record; control for the full effect not named in the record | potentiation, % at 8.33 µM; active means potentiation above 80%; inconclusive means 30% to 80%; inactive means below 30%; note: 0% is about no effect
Target sequence (Q8NER1 whole entry, looked up): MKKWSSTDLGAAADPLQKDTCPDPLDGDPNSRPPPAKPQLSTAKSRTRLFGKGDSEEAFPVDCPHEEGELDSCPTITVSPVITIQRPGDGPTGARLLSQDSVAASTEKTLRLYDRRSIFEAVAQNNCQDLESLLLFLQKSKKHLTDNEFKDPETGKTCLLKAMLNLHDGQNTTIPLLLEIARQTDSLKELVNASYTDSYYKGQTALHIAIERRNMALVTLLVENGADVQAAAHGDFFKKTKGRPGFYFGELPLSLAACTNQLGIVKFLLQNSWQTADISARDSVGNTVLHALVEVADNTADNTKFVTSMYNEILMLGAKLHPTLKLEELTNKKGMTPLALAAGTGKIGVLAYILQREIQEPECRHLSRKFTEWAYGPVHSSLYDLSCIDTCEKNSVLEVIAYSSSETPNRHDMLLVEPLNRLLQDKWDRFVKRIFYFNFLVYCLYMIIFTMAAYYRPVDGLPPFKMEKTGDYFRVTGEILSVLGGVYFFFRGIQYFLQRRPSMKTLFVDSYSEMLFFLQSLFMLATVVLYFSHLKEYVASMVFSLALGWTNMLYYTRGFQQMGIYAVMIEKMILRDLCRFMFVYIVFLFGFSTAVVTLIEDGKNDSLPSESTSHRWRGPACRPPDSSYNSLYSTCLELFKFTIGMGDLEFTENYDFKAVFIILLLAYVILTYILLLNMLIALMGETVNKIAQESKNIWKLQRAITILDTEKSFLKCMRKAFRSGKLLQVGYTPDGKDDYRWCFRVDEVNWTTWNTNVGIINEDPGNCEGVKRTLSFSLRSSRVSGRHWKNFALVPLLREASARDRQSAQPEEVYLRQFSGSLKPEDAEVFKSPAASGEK
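Fluo-8 calcium influx in TRPV1-expressing cells, kinetic read (ex 480/em 520 nm). Compound added and read 3 min for agonist activity, followed by capsaicin at EC20 final and 2 min further read for enhancement.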
TRPML1 inh = human mucolipin-1 channel inhibition; activity change, negative = inhibition, % (test concentration not listed); Q9GZU1; TRPML1-inducible cells, Ca2+ dye fluorescence, FDSS; stronger effect = lower value; inhibition of EC80 agonist-evoked calcium signal; 0.02% of 390,000 active; in the data active means activity change below about -50%; inconclusive means about -30% to -50%; inactive means above about -30%;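 note: stimulus is agonist 54-4 at its EC80 concentration; % is set by controls: 0 for no effect and ±100 for the full control effect; compound concentration not given in the record; the text of the record puts the active cut at -80%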
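Tet-induced TRPML1-DL cells loaded with Ca8 no-wash calcium dye were read kinetically on FDSS. Compound addition was followed by EC80 agonist 54-4 (4 uM final); inhibition was read over 110 s.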
Starred values were filed as active, the others as inactive; ? = inconclusive; . = not tested or not shown; [ ] = another dose, or the depositor's remark. An unsorted share of the library, and some 4.9% of all compounds hit somewhere here.

SMILES,Menin-MLL FL inh,Sfp inh,gsp antagonist,ClpP mod,gsp ag,TRPV1 potentiator,TRPML1 inh
CSc1ccc(CNCCN2CCOCC2)cc1,-3.0,11%,5%,-1.1%,-13%,24,13
COCCNc1ccc(-c2nn(C)c(=O)c3ccccc23)cc1[N+](=O)[O-],2.6,14%,-2%,0.5%,12%,3,-22
Cc1ccc(C2=NN(C(=O)CSc3nnnn3C)C(c3ccco3)C2)cc1 (centres undefined),.,.,0%,0.1%,9%,-8,26
COc1cccc(N2C(=O)C(c3ccccc3)=C(c3nc4ccccc4s3)C2NC(C)=O)c1 (centres undefined),1.5,9%,4%,0.8%,-2%,0,-3
Cc1ccccc1OCc1csc(N)n1,4.5,-12%,11%,3.3%,9%,14,6
COc1ccc(/C=C(\NC(=O)c2ccc(Cl)cc2)C(=O)NCc2cccnc2)cc1OC,.,.,.,-2.9%,-111%[inhibitor],.,2
COc1ccc([N+](=O)[O-])cc1NC(=O)CSCc1ccccc1,6.0,-11%,-20%,-4.2%,20%[15.4 µM],-11,18
CCCNC(=S)N1CCC(NC(=O)C23CC4CC(CC(C4)C2)C3)CC1,2.8,15%,-3%,1.1%,-19%,-2,-10
O=C(CCl)N(c1ccccc1)C1CCCCC1,-1.9,6%,-13%,-0.3%,?,-10,0
COC(=O)c1sccc1-n1cccc1C(=O)C(=O)N1CC(C)OC(C)C1 (centres undefined),1.7,5%,7%,1.1%,-1%,-4,-12
CC(C)(C)n1nnnc1C(c1ccc(Cl)cc1)N(Cc1cccnc1)Cc1ccco1 (centres undefined),2.7,-3%,-20%,-0.4%,0%,5,13
CC(C)C(NC(=O)c1ccc2c(c1)OCCO2)c1nc2ccccc2[nH]1 (centres undefined),0.4,12%,4%,.,26%,-10,-12
C[C@H](CO)N1C[C@H](C)[C@@H](CN(C)S(=O)(=O)c2ccc(F)cc2)Oc2ccc(NC(=O)C3CC3)cc2C1=O,.,.,1%,-1.0%,.,.,44
OC(CN1CCOCC1)Cn1c2c(c3ccccc31)CCCC2 (centres undefined),-1.6,5%,-2%,3.7%,-4%[15.4 µM],-5,17
Cc1ccc(C)c(-n2c(Cc3cccs3)n[nH]c2=S)c1,3.9,21%,5%,.,-8%[15.4 µM],-15,-1
CC(C)c1c(C(=O)N/N=C/c2cccs2)nnn1-c1nonc1N,0.2,13%,-13%,0.0%,?,-1,14
COCC(=O)Nc1c(C(=O)Nc2ccc3c(c2)OCCO3)oc2ccccc12,-1.1,7%,?,.,-11%[15.4 µM],-3,13
CCOC(=O)COc1ccc(CCNC(C)=O)cc1,0.0,7%,8%,-1.0%,9%,0,-11
COc1cccc(C(=O)NCC2CCCN(C(=O)c3ccc(C=O)cc3)C2)c1OC (centres undefined),2.0,5%,-7%,2.2%,11%,5,-12
Cc1cc(C)n(CC(O)Cn2cnc3c2c(=O)n(C)c(=O)n3C)n1 (centres undefined),1.1,14%,18%,0.8%,?,9,12

Remaining list, next part.
SMILES,Menin-MLL FL inh,Sfp inh,gsp antagonist,ClpP mod,gsp ag,TRPV1 potentiator,TRPML1 inh
CCN(CC)CCN1C(=O)C(=O)/C(=C(/O)c2ccc(F)cc2)C1c1cccnc1 (centres undefined),-2.5,2%,2%,0.6%,1%,6,-9
COc1cc(/C=C/C(=O)OCC(=O)NC(=O)NCc2ccco2)ccc1OC(F)F,.,.,-10%,-27%,-10%,.,27
COC(=O)c1cc(COC(=O)CNC(=O)c2ccc(Br)cc2)oc1C,.,.,-2%,.,-13%,.,5
O=C(NCc1ccccc1)c1onc(CSc2ccccc2)c1C(=O)NCc1ccccc1,.,.,-6%,-2.0%,.,.,-7
CNS(=O)(=O)c1cc(NC(C)=O)c(C)cc1C,1.2,6%,0%,-3.3%,23%,-7,-6
OCCc1c[nH]c2ccc(OCc3ccccc3)cc12,0.0,14%,4%,-0.3%,-39%[inhibitor],13,.
COc1ccc(/C=N/NC(=O)CN2CCN(Cc3ccccc3)CC2)cc1Br,-2.1,8%,-7%,.,-2%[15.4 µM],0,-17
CCCOc1ccc(C(=O)CCC(=O)OCC(=O)N2CC(=O)Nc3ccccc32)cc1,0.0,-2%,-8%,0.0%,-6%,15,31
CC(NC(=O)c1cccnc1)C(=O)N1CCCCC1 (centres undefined),1.4,8%,-3%,?,0%,3,10
Cc1nnc(SCC(=O)Nc2ccc(S(=O)(=O)N3CCCCC3)cc2)s1,5.7,-3%,5%,-7.4%,21%,-26,-3
CCn1c(O)c(C=Nc2ccccc2)n(-c2ccccc2)c1=S,2.7,79µM*,-1%,0.2%,13%,6,-10
Cc1c(N(C)S(=O)(=O)c2cccc(C(=O)NC(C)C)c2)c(=O)n(-c2ccccc2)n1C,-0.9,79µM*,-31%,0.2%,12%[15.4 µM],8,-4
CN(C)c1nc(N)c([N+](=O)[O-])c(NCC2CCCO2)n1 (centres undefined),1.5,10%,9%,.,1%[15.4 µM],-3,-8
COc1cccc(CC2(CO)CCCN(Cc3ccccc3-c3ccco3)C2)c1 (centres undefined),?,-29%,4%,.,7%[15.4 µM],-8,-5
Cc1ccc(S(=O)(=O)N2CCN(CCC#N)CC2)cc1,0.7,79µM*,0%,0.2%,18%[15.4 µM],3,-17
CS(=O)(=O)N(Cc1ccc(C(=O)NC2CCCCC2O)cc1)c1ccccc1 (centres undefined),-1.3,6%,9%,-1.1%,-24%,6,30
Fc1ccc(-n2cnnn2)c(F)c1,-0.4,19%,10%,0.7%,-35%[inhibitor],-16,-11
Cc1ccc(-c2ccc(=O)n(CC(=O)Nc3ccc4c(c3)OCCO4)n2)cc1,-2.0,16%,-2%,32%,-18%,10,3
COC(=O)c1cc(NS(=O)(=O)c2ccc(C)c3ccccc23)ccc1N1CCOCC1,-0.3,1%,-6%,-0.9%,-2%[15.4 µM],21,2
COc1ccccc1C(=O)NNC(=O)C(=O)Nc1cccc(Cl)c1C,-12,27%,6%,.,-8%[15.4 µM],-5,-6

2 entries from above in a different format.
Cc1ccc(C)c(-n2c(Cc3cccs3)n[nH]c2=S)c1
  Menin-MLL FL inh: 3.9
  Sfp inh: 21%
  gsp antagonist: 5%
  ClpP mod: .
  gsp ag: -8%[15.4 µM]
  TRPV1 potentiator: -15
  TRPML1 inh: -1
CC(C)c1c(C(=O)N/N=C/c2cccs2)nnn1-c1nonc1N
  Menin-MLL FL inh: 0.2
  Sfp inh: 13%
  gsp antagonist: -13%
  ClpP mod: 0.0%
  gsp ag: ?
  TRPV1 potentiator: -1
  TRPML1 inh: 14

Next records
SMILES,Menin-MLL FL inh,Sfp inh,gsp antagonist,ClpP mod,gsp ag,TRPV1 potentiator,TRPML1 inh
CCOc1ccc(-n2nnnc2SCC(=O)N2CCOCC2)cc1,-1.9,30%,6%,-1.0%,6%,0,-8
CSc1nc2nc3c(cc2c(=O)n1-c1ccccc1)COC(C)(C)C3,0.8,4%,-9%,.,-44%[inhibitor],-3,-3
Cc1ccc(C(=O)/C=C/c2ccc3c(c2)OCCO3)c(O)c1,-0.4,-27%,-2%,.,25%[15.4 µM],2,-11
COc1ccc(OC)c(NC(=O)C(=O)NNC(=O)C23CC4CC(CC(C4)C2)C3)c1,-0.6,14%,?,.,-9%[15.4 µM],-11,11
CCN(c1ccc(OC)cc1)S(=O)(=O)c1nnc(NC(=O)COc2ccc(C)cc2)s1,.,6%,-3%,-3.6%,3%,17,19
COc1ccc(-c2cc(=O)oc(-c3cccc(C)c3)n2)cc1,3.1,0%,1%,1.4%,0%,3,1
CCN(CC)C(=O)N1CCC(NC(=O)Cc2ccccc2)CC1,3.3,14%,5%,1.9%,-1%,1,27
c1ccc(Cn2c(-c3cncs3)nc3ccccc32)cc1,-0.3,?,-26%,-25%,16%,-18,15
COc1ccc(N(CC(=O)NC2CCCCC2)C(=O)CCCC(=O)Nc2ccccn2)cc1,1.4,13%,5%,.,6%[15.4 µM],3,14
Cc1ccc(CCNC(=O)CCNS(=O)(=O)c2ccc3c(c2)oc(=O)n3C)cc1,-0.4,9%,-12%,1.8%,-16%,-21,-5
CCOc1ccc(CCNC(=O)C2CC(=O)N(CCc3ccccc3)C2)cc1OCC (centres undefined),3.5,12%,-13%,0.1%,-32%[inhibitor],7,2
C=CCNC(=O)c1onc(CSc2ccccc2)c1C(=O)O,1.3,-7%,1%,0.5%,.,-16,20
O=C(Nc1ccccc1C(=O)N1CCOCC1)C1CC(=O)N(c2ccc(F)cc2)C1 (centres undefined),.,1%,1%,.,5%[15.4 µM],3,-6
O=C1NC2(CCCCC2)C(=O)N1/N=C/c1ccccc1Br,-1.4,12%,-13%,1.1%,-1%,1,4
CCOCCOC(=O)c1cccc2c1-c1ccccc1C2=O,0.6,0%,7%,-0.3%,26%,15,.
Oc1ccc(NCc2cccc(OCc3ccccc3)c2)cc1,-1.3,?,?,-2.7%,-1%,6,2
COc1ccc2cc(CCNS(=O)(=O)c3c(C)cc(C)cc3C)c(=O)[nH]c2c1,0.4,10%,-3%,.,-4%,-1,-2
COc1ccc2c(c1)/C(=C\c1cccc(/C=C3/C(=O)Nc4ccc(OC)cc43)n1)C(=O)N2,.,.,19%,1.2%,-19%,.,6
Cc1nc([N+](=O)[O-])c(N2CCOCC2)n1Cc1ccccc1,0.6,-5%,-5%,-0.3%,-1%,-9,4
COCCNC(=O)c1onc(CSc2ccccc2F)c1C(=O)O,2.8,35%[activator],5%,-0.1%,-35%[inhibitor],-20,16
CN(C)CCCn1c(=S)[nH]c2sc3c(c2c1=O)CCCC3,-2.1,79µM*,3%,.,6%[15.4 µM],-11,6
